# YopH inh = YopH (Yersinia) phosphatase inhibition. fluorescence Ex485/Em525. inhibition, %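 (about 10 µM by stock and volumes)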. 140,000 compounds, 0.16% hits. AID 898;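 active = inhibition of 50% or more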;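 note: controls were vehicle for no effect and minimum signal wells for full effect; inactives centre near -20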
# Mtb growth = M. tuberculosis H37Rv growth inhibitors, H37Rv strain (AID 1626). inhibition, % at 10 µM, or IC50 in µM where a hit was titrated. 220,000 compounds, 0.95% hits. M. tuberculosis H37Rv growth inhibition; higher % means a stronger effect;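 active = confirmed in a dose series; inconclusive = inhibition above 80% but not taken into the dose series; inactive = below 80% or under 30% at every dose of the series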;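 note: bacteria incubated seven days before Alamar blue readout; 0% = bacteria only wells and 100% = bacteria with antibiotic wells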
# Mtb betalactam = beta-lactam sensitization of Mtb H37Rv. M. tuberculosis H37Rv growth with meropenem, percent inhibition; hits of this screen are not shown here. inhibition, % at 25 µM. 330,000 compounds, 0.27% hits. AID 434955;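 active = about 74% or more and at least 40 points above the plate without the antibiotic, then above 30% in a dose series; inconclusive = first-round hits that could not be retested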;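 note: growth measured after seven days incubation then overnight dye step; 0% = bacteria only wells and 100% = bacteria with antibiotic; twin plates without the antibiotic show which effects depend on it; some results filed as inactive read as strong as hits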
# Arbovirus anti = antivirals against arbovirus infection | arbovirus infection cell-based antiviral screen | inhibition, % at 10 µM | 200,000 compounds, 0.37% hits;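 active = inhibition from about 30%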;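 note: bluetongue infection of BSR cells; cell survival read as ATP light after 72 h; 0% = infected wells without compound and 100% = uninfected wells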
# RecA intein inh = Mtb RecA intein splicing inhibition | P9WHJ3 | cell-free RecA intein splicing, fluorescence | inhibition, %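 (about 9 µM by stock and volumes)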 | 290,000 compounds, 0.75% hits; in the data active = inhibition above about 30%; inconclusive = no clear call, values can overlap the other calls;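 note: 0% = vehicle wells and 100% = reference inhibitor control wells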
# Target sequence (P9WHJ3 whole entry, looked up): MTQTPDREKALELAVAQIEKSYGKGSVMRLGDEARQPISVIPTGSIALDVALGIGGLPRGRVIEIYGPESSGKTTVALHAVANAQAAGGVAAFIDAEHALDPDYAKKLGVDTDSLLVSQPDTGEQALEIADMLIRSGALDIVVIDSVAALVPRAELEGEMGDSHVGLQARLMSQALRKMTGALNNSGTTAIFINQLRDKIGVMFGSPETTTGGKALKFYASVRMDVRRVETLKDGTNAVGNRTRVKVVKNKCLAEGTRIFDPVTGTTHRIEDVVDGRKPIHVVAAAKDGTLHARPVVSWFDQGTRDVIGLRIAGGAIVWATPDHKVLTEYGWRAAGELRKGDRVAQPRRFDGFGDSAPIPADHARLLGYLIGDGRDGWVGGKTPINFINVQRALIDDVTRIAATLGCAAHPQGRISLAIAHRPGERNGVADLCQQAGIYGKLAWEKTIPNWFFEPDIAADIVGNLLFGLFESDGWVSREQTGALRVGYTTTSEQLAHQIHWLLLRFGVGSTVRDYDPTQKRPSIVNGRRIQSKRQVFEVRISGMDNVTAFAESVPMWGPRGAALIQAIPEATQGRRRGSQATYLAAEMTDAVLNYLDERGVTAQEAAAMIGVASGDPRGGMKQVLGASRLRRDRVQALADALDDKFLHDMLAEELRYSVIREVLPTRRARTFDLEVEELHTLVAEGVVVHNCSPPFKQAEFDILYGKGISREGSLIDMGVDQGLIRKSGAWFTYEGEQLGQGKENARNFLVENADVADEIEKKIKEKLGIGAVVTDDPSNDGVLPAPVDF
# Arbovirus anti repeat = also measured in Arbovirus anti; calls as there; inhibition, %; measured here: 10K subset replicate screen; many hits read low in the repeat;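 first of two repeat runs on a subset; 0% = infected and 100% = uninfected wells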
# The depositor's hits bear a star; ? = inconclusive; . = not tested or not shown; & = joins results of further samples. Not all compounds are listed; rates above refer to the full screens.
SMILES,YopH inh,Mtb growth,Mtb betalactam,Arbovirus anti,RecA intein inh,others
COC(C(=O)Nc1ccnn1C1CCN(C(=O)c2ccc(C=O)cc2)CC1)c1ccccc1 (centres undefined),.,.,1,.,2.1,
S=C(Nc1ccc(Cl)cc1Cl)N1CCCC1,.,.,5,.,-0.6,
CC1=C(C#N)C(c2ccccc2)C2=C(N1)c1ccccc1C2=O (centres undefined),-24,2%,1,-17,4.6,
COc1ccc(NC(=O)c2cccc(N3C(=O)C4C5C=CC(C5)C4C3=O)c2)cc1Cl (centres undefined),.,.,64,.,94*,
COc1ccc(NC(=S)N(CCC(C)C)C2CCN(C(C)C)CC2)cc1,.,.,1,.,1.3,
CC(=O)CCc1ccc(OCCCCN2CCC(Cc3ccccc3)CC2)cc1,.,3%,48,-2,1.9,
COc1cccc(OCc2nnc(SCC(=O)N3c4ccccc4Sc4ccc(Cl)cc43)o2)c1,25,55%,5,7,22,
O=C(Nc1ccc(C(F)(F)F)cc1)c1cnc(N2CCN(c3ccccn3)CC2)c2ccccc12,.,65%,3,-5,4.0,
Cc1noc(C)c1COC(=O)c1cnc(Cl)c(Cl)c1,.,-6%,1,-8,1.8,
CCC(C)NC(=O)CSc1nnc(-c2ccc(C(C)(C)C)cc2)n1C (centres undefined),-26,-3%,-5,6,1.2,
Cn1c(=O)oc2cc(S(=O)(=O)NCCC(=O)N3CCc4ccccc43)ccc21,-30,.,1,4,-0.8,
Cc1ccccc1NC(=O)Cn1nc(C)n2cccc2c1=O,.,.,-4,.,0.7,
CNc1c(C(=O)O)ccc2c1C(=O)c1ccccc1C2=O,-25,-2%,5,2,-1.7,
Cc1ccc(C)c(NS(=O)(=O)c2csc(C(N)=O)c2)c1,.,.,10,.,-2.5,
Cc1ccc2nc(SCC(=O)Nc3cccc(S(=O)(=O)N(C)C)c3)[nH]c2c1,-36,?,5,1,1.8,
CCCOC(=O)CCNc1n[nH]c(=O)[nH]c1=O,-43,-6%,-3,1,-2.4,
COc1ccc(-c2nnc(CSc3nnc(-c4ccncc4)n3C3CCCCC3)o2)cc1OC,-37,-6%,4,2,0.3,
COC(=O)c1ccccc1N=Nc1c(C)noc1C,.,-15%,8,.,1.4,
Cc1cc(NC(=O)CN2CCC(O)(c3cccc(F)c3)CC2)no1,-22,0%,-14,1,0.3,
COc1ccc(-n2nc3ccccc3n2)cc1,50*,-5%,-4,-2,1.5,
S=C(Nc1ccc(Br)cc1)NC1CCN(Cc2ccccc2)CC1,.,.,-7,.,-0.1,
O=C(Nc1cccc(Cl)c1)N(CCCN1CCOCC1)Cc1ccccc1F,-44,0%,.,5,0.7,
O=C(NCc1ccc(F)cc1)c1ccc(Br)o1,.,-1%,7,-2,-2.3,
CCN(CC)C(=O)Cn1cc(C(=O)C2CC2)c2ccccc21,.,-2%,17,1,-0.4,
C=CCOc1ccccc1CN1CCC(Cc2ccccc2)CC1,.,.,0,.,1.7,
Cc1ccc(C)c(N(C)S(=O)(=O)c2cccc3nsnc23)c1,-9,-6%,1,4,0.3,Arbovirus anti repeat=10
CC1(C)Cc2nc(Cl)c(C(N)=O)cc2CO1,.,-4%,-5,.,0.5,
O=C(CSc1nnnn1-c1ccc(C(=O)O)cc1)NC1CC1,.,.,-8,.,1.5,
CCOc1ccc(S(=O)(=O)N2Cc3ccccc3CC2C(=O)O)cc1 (centres undefined),.,-9%,-3,.,-7.6,
Cc1ccc(S(=O)(=O)/N=C(/c2ccc(F)cc2)N2CCOCC2)cc1,.,.,0,.,-2.0,
COc1ccc(CNC(=O)COC(=O)c2ccc(F)c(S(=O)(=O)N3CCCCC3)c2)cc1OC,.,-3%,-3,.,-0.5,
COc1cccc2c1C(=O)C=C(C)C2=O,36,-5%,-5,-42,25,
Nc1c2c(nn1-c1ccc(C(=O)O)cc1)CNC2,.,.,5,.,-0.3,
CC1=C(C)CC(C(=O)Nc2nccs2)C(C(=O)O)C1 (centres undefined),.,.,-2,.,1.6,
CN(CC(=O)NCc1ccco1)S(=O)(=O)c1cccc2cccnc12,-22,-8%,-4,12,1.4,
Cc1ccc(CN2CC(C(=O)N3CCN(S(=O)(=O)c4cccc(F)c4)CC3)CC2=O)cc1 (centres undefined),.,.,0,.,-0.7,
CC(=O)c1ccc(OCC(O)CN2CCN(S(=O)(=O)c3c(C)c(C)cc(C)c3C)CC2)cc1 (centres undefined),.,.,4,.,2.6,
FC(F)(F)c1ccc(/C=N/N2CCN(Cc3ccccc3)CC2)cc1,-16,-4%,29,-1,4.1,
CC(CCCCC(=O)Nc1ccc(C(F)(F)F)cc1)NCCc1cnc[nH]1 (centres undefined),.,-9%&6%,-11,6,1.8,
O=C1CC(NCC2CCCO2)C(=O)N1c1ccc(F)cc1 (centres undefined),.,-7%,-7,-2,2.6,

# Random excerpt: 6 compounds from above
SMILES,YopH inh,Mtb growth,Mtb betalactam,Arbovirus anti,RecA intein inh,others
O=C(NCc1ccc(F)cc1)c1ccc(Br)o1,.,-1%,7,-2,-2.3,
COc1ccc(CNC(=O)COC(=O)c2ccc(F)c(S(=O)(=O)N3CCCCC3)c2)cc1OC,.,-3%,-3,.,-0.5,
CCOc1ccc(S(=O)(=O)N2Cc3ccccc3CC2C(=O)O)cc1 (centres undefined),.,-9%,-3,.,-7.6,
O=C(CSc1nnnn1-c1ccc(C(=O)O)cc1)NC1CC1,.,.,-8,.,1.5,
CC(=O)c1ccc(OCC(O)CN2CCN(S(=O)(=O)c3c(C)c(C)cc(C)c3C)CC2)cc1 (centres undefined),.,.,4,.,2.6,
Cc1ccc(CN2CC(C(=O)N3CCN(S(=O)(=O)c4cccc(F)c4)CC3)CC2=O)cc1 (centres undefined),.,.,0,.,-0.7,

# The results go on:
SMILES,YopH inh,Mtb growth,Mtb betalactam,Arbovirus anti,RecA intein inh,others
O=S(=O)(c1ccccc1)c1nc(NC2CC2)sc1Cl,.,7%,-3,7,.,
CN(CC(=O)NCCc1ccc(F)cc1)Cc1cccs1,.,-5%,4,11,-0.2,
CCOP(=O)(c1ccccc1)c1nc(-c2ccccc2C)oc1N1CCCCC1 (centres undefined),-27,11%,-1,-36,18,
CCN(CC)c1ccc(C2C(C(=O)OC)=C(C)NC(C)=C2C(=O)OC)cc1,-21,-13%,0,1,-1.7,
CC(C)CN(C(=O)Cn1c(=O)cnc2ccccc21)C1CCS(=O)(=O)C1 (centres undefined),.,.,-2,.,-0.8,
Cn1c(=O)c2c(SCC(=O)N3CCOCC3)nc(-c3ccccc3F)nc2n(C)c1=O,.,.,?,.,2.3,
CCOC(=O)/C=C1\Nc2ccccc2OC1=O,9,?,95,-1,0.5,
COc1ccc(/C=N/n2c(=O)[nH]c3c([nH]c4ccc(Cl)cc43)c2=O)cc1CN1CCCCC1,.,-11%,-9,.,.,
O=C(NC1CCCC1)C1CCCN(S(=O)(=O)c2ccc(F)cc2)C1 (centres undefined),.,.,-5,.,-3.7,
CSc1ccc(Cl)c(C(=O)Nc2nccs2)c1,.,-5%,2,.,-0.3,
CC(OC(=O)c1snc(C(=O)NC2CCCCC2)c1N)C(=O)NC(C)(C)C (centres undefined),-24,39%,97,3,1.9,
CC1C2NC(=O)N(Cc3ccccc3)C1(C)Oc1ccccc12 (centres undefined),.,-5%,-2,6,12,
CC(=O)Nc1ccc(NC(=O)COc2ccc(-c3ccccc3)cc2)cc1,.,.,62,.,-2.1,
CCOC(=O)c1cc2c(=O)n3ccccc3nc2n(Cc2ccco2)c1=NC(=O)c1ccc(OC)cc1OC,.,-2%,-6,3,-32,
CC1CCCN(CCC(=O)Nc2ccc(Br)cc2)C1 (centres undefined),4,-8%,1,-20,1.2,
CC1(C)C(=O)Nc2ccccc2N1C(=O)CN1C(=O)NC(CCc2ccccc2)C1=O (centres undefined),.,-7%,2,-7,2.3,
CN(C(=O)CSc1nnc(-c2ccc(Cl)cc2)n1CC1CCCO1)C1CCS(=O)(=O)C1 (centres undefined),.,0%,-8,2,1.4,
Cc1ccc2c(c1)N(CC(=O)NC1CCCC1)C(=O)C(C)O2 (centres undefined),.,.,2,.,-3.2,
COc1cc(OC)c(CNC2CCCCCC2)cc1Br,.,5%,-11,-18,-0.1,
CCOC(=O)c1cccc(NC(=O)CNS(=O)(=O)c2cccs2)c1,-19,-2%,-2,0,-4.6,Arbovirus anti repeat=0
O=C(COc1ccccc1)Nc1ccc(S(=O)(=O)NCc2ccco2)cc1,-20,14%,-7,-8,4.8,
CCn1c(SCC(=O)Nc2cc(NC(C)=O)ccc2OC)nnc1-c1ccccn1,16,-5%,-4,-1,1.1,
O=C(CSc1nc2ccccc2n1-c1ccccc1)Nc1ncc(Cl)cc1Cl,-13,.,2,-2,20,
CCN1C(=O)C(=Cc2cc(C)n(C3CC3)c2C)C(=O)N(CC)C1=S,-12,9%,2,10,5.5,
C=CCOc1c(CNc2ccc(S(N)(=O)=O)cc2)cccc1OC,-19,0%,2,5,.,
O=C(CN1CCOCC1)Nc1c2c(nc3c1CCC3)CCC2,3,-5%,2,-4,0.7,
Cc1ccc(C(=O)N/C(=C/c2cccs2)C(=O)N2CCCCCC2)cc1,-22,0%,2,-3,1.9,
O=C(c1ccco1)N1CCN(c2ccc([N+](=O)[O-])cn2)CC1,.,.,2,.,1.2,
CC1CC(=O)Nc2ccccc2N1S(=O)(=O)c1cccc(F)c1 (centres undefined),.,-6%,-11,.,0.4,
COC(=O)c1cc(-c2c(C)oc3cc(O)ccc3c2=O)c(C)o1,-21,-6%,3,0,-0.4,
O=C(NCC(c1cccnc1)N1CCN(c2ccc(F)cc2)CC1)c1ccc(F)cc1 (centres undefined),6,-10%,-17,3,3.4,
O=C(NCc1ccccc1)c1ncn[nH]1,.,-5%,-4,.,0.9,
O=S(=O)(Cc1ccccc1)N1CCCC1,-29,-2%,-9,-7,0.8,
Cc1ccc(C)c(Cn2c3ccccc3c3cnn(CC(=O)NCCN4CCOCC4)c(=O)c32)c1,.,.,-1,.,3.2,
CCOC(=O)CSc1nnc(CNC(=O)c2cc(OC)c(OC)c(OC)c2)n1C,5,-11%,5,5,-0.5,
Cc1cc(C)n(CCNC(=O)CC2C(=O)NCCN2CC2CCCCC2)n1 (centres undefined),.,-1%,-5,2,1.0,
Cc1onc(-c2ccccc2Cl)c1C(=O)N1CCN(S(=O)(=O)c2ccc(F)c(F)c2)CC1,.,.,-3,.,0.8,
COC1CCCCC1Nc1cc(C)cc(C)c1 (centres undefined),-17,-2%,4,8,-4.5,
O=C(CSC1=NS(=O)(=O)c2ccccc2N1)Nc1ccccc1F,.,.,3,.,-1.0,
Cc1ccc(Cn2ncc3c(N4CCN(C)CC4)ncnc32)cc1,.,-1%,-8,5,-3.1,
Cc1cc(C)c2cc(CN(CCO)C(=O)Nc3ccc(Cl)cc3)c(=O)[nH]c2c1,-38,10%,-15,0,3.7,
CC(C)c1nnc(NC(=O)CSc2nc3ccccc3[nH]2)s1,.,-3%,-5,1,-3.7,
OC(c1ccc(Cl)cc1)c1nccc2ccccc12 (centres undefined),.,.,2,.,3.7,
CCOC(=O)C1(Cc2ccc(OC)cc2)CCN(C(=O)c2ccoc2C)CC1,.,3%,1,1,.,
CC(OC(=O)c1cc(=O)[nH]c2ccccc12)C(=O)c1ccccc1 (centres undefined),.,-2%,-7,7,-0.6,
COc1cc(Cl)c(C)cc1NC(=O)CSC,-24,-4%,-8,-1,-2.2,
COC(=O)CCCC1=CC2=C(c3ccccc3)C(=O)C(C)(OC(=O)C3CCCC3)C(=O)C2=CN1CCc1c[nH]c2ccccc12 (centres undefined),.,0%,24,.,1.6,
COc1cc(SC)ccc1C(=O)Nc1ccc(Cl)cn1,.,-2%,-3,-2,.,
C#CCOCCOCCOCCNc1nc(N2CCOCC2)nc(N2CCN(C(=O)[C@H](CCC(=O)O)n3cc(C(N)[C@H](C)CC)nn3)CC2)n1 (some centres undefined),.,-5%,-1,0,-0.5,
CC(=O)N1CC(=O)N(CC(=O)Nc2ccc(Br)cc2)C1=S,.,.,-1,.,-3.4,
CCOC(=O)N1CCN(CCC(=O)Nc2ccc(F)c(F)c2)CC1,.,.,0,.,-1.1,
O=C(CC1CCCCC1)NCCS(=O)(=O)N1CCN(c2ccccc2)CC1,.,.,-11,.,-3.9,
CCC(=NCc1ccc(Cl)c(Cl)c1)c1nc(-c2ccco2)oc1O,-36,8%,-1,-34,-2.3,
O=C1COc2ccc(C(=O)/C=C/c3ccccc3)cc2N1,-9,16%,.,13,-3.4,
COc1ccc(CN(C)C(C)C(=O)NC2CCCc3ccccc32)cc1 (centres undefined),.,8%,4,-16,1.6,

# A section from further up, as a working copy:
SMILES,YopH inh,Mtb growth,Mtb betalactam,Arbovirus anti,RecA intein inh,others
Cc1cc(C)c2cc(CN(CCO)C(=O)Nc3ccc(Cl)cc3)c(=O)[nH]c2c1,-38,10%,-15,0,3.7,
CC(C)c1nnc(NC(=O)CSc2nc3ccccc3[nH]2)s1,.,-3%,-5,1,-3.7,
